# HIV Env fusion: blocks HIV Env-driven cell-cell fusion. inhibition, % at 12.3 µM. AID 651610. HeLa-JRFL Env/CEM21 cell fusion, luciferase. hit rate 1.1% among 360,000;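 active = mean replicate inhibition score of at least 50 and every replicate individually at or above 50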;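 note: 0% = plate neutral controls and 100% = maraviroc near 300 nM; one replicate is shown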
# Yeast UUG start: modulators of start codon recognition fidelity in yeast; S. cerevisiae UUG-firefly luciferase reporter, luminescence/redox ratio; activity score, % at 18.7 µM; hit rate 0.13% among 350,000; AID 602363;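 active = replicate mean at a twofold rise or more, about +100% in these data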;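 note: firefly luciferase made from a UUG start codon reports start codon fidelity; reporter light over untreated wells divided by growth signal over untreated wells; some hits fall short of that in this replicate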
# Active calls of the source: *; [ ] = dose if it differs, or a comment. These rows are one share of the data; rates above refer to the full screens.
SMILES,HIV Env fusion,Yeast UUG start
CNC[C@H]1Oc2ccc(NC(=O)Nc3ccc(C(F)(F)F)cc3)cc2C(=O)N([C@@H](C)CO)C[C@H]1C,7[16.7 µM],-1
C[C@H]1CN([C@@H](C)CO)C(=O)c2cc(-c3cccnc3)cnc2O[C@H]1CN(C)S(C)(=O)=O,1[16.7 µM],4
CCCN(C)C[C@@H]1OCCCC[C@@H](C)Oc2ccc(NS(=O)(=O)c3cccs3)cc2C(=O)N([C@@H](C)CO)C[C@@H]1C,18[16.7 µM],-6
CNC[C@H]1Oc2ccc(NC(=O)Nc3ccc(C(F)(F)F)cc3)cc2CC(=O)N([C@H](C)CO)C[C@@H]1C,-2[16.7 µM],2
C[C@H]1CCCCO[C@@H](CN(C)S(=O)(=O)c2ccc(Cl)cc2)[C@@H](C)CN([C@@H](C)CO)C(=O)c2cc(NS(=O)(=O)c3cn(C)cn3)ccc2O1,4[16.7 µM],13
O=C(Cc1ccccn1)NCC[C@@H]1CC[C@@H](NC(=O)c2ccccc2F)[C@@H](CO)O1,-9[16.7 µM],-2
C[C@@H]1CN([C@H](C)CO)C(=O)c2cc(C#CC(C)(C)O)cnc2O[C@H]1CN(C)C(=O)c1ccccc1F,-8[16.7 µM],13
C[C@H]1CN([C@@H](C)CO)C(=O)c2cc(NC(=O)C3CCCCC3)ccc2O[C@@H]1CN(C)Cc1ccc(Oc2ccccc2)cc1,-1[16.7 µM],-4
C[C@H](CO)N1C[C@H](C)[C@H](CN(C)Cc2ccc(-c3ccccc3)cc2)Oc2ccc(NC(=O)Nc3ccc(F)cc3)cc2CC1=O,9[16.7 µM],-12
CCNC(=O)C[C@@H]1CC[C@H](NC(=O)C2CCC2)[C@@H](CO)O1,-8[16.7 µM],8
Cc1ccc(S(=O)(=O)Nc2ccc3c(c2)C(=O)N([C@@H](C)CO)C[C@@H](C)[C@H](CN(C)C(=O)NC(C)C)O3)cc1,-13[16.7 µM],-8
C[C@H]1CN([C@@H](C)CO)C(=O)c2cc(C3=CCCC3)cnc2O[C@H]1CN(C)C(=O)CN1CCOCC1,12[16.7 µM],4
C[C@H]1CN([C@@H](C)CO)C(=O)c2cc(C#CC(C)(C)O)cnc2O[C@H]1CN(C)C(=O)C1CCOCC1,7[16.7 µM],4
C/C=C/c1ccc2c(c1)O[C@@H](CN(C)C(=O)CC)[C@@H](C)CN([C@H](C)CO)S2(=O)=O,10[16.7 µM],0
COc1ccc(NC(=O)Nc2ccc3c(c2)CC(=O)N([C@@H](C)CO)C[C@@H](C)[C@@H](CN(C)Cc2ccc4c(c2)OCO4)O3)cc1,2[16.7 µM],3
C[C@@H]1CCCCO[C@H](CN(C)C(=O)NC2CCCCC2)[C@@H](C)CN([C@H](C)CO)C(=O)c2cc(NS(=O)(=O)c3cccs3)ccc2O1,-1[16.7 µM],11
C[C@H]1CN([C@@H](C)CO)C(=O)c2cc(NC(=O)Nc3ccc(C(F)(F)F)cc3)ccc2O[C@H]1CN(C)Cc1ccc2c(c1)OCO2,23[16.7 µM],0
CCCNC(=O)N(C)C[C@H]1Oc2cc(C#C[C@@H](C)O)ccc2S(=O)(=O)N([C@H](C)CO)C[C@@H]1C,-21[16.7 µM],0
CNC[C@@H]1OCCCC[C@@H](C)Oc2ccc(NS(=O)(=O)c3c(C)noc3C)cc2C(=O)N([C@@H](C)CO)C[C@H]1C,-7[16.7 µM],-20
C[C@@H]1CN([C@@H](C)CO)C(=O)c2cc(C3=CCCCC3)cnc2O[C@H]1CN(C)C(=O)Nc1ccc(F)cc1,-28[16.7 µM],19
C[C@@H]1CN([C@H](C)CO)C(=O)c2cc(C3=CCCCC3)cnc2O[C@@H]1CN(C)Cc1ccccn1,1[16.7 µM],-18
C[C@@H]1CN([C@@H](C)CO)C(=O)c2cccc(NC(=O)C3CC3)c2O[C@@H]1CN(C)S(=O)(=O)c1ccccc1,-11[16.7 µM],6
C/C=C/c1cnc2c(c1)C(=O)N([C@H](C)CO)C[C@@H](C)[C@H](CN(C)C(=O)Nc1ccccc1F)O2,-12[16.7 µM],1
CN1CCN(C(=O)C[C@H]2C[C@@H]3c4cc(NC(=O)NC5CCCC5)ccc4O[C@@H]3[C@H](CO)O2)CC1,28[16.7 µM],-13
CCCNC(=O)C[C@@H]1CC[C@@H]2[C@@H](COc3ccc(NS(=O)(=O)CC)cc3C(=O)N2C)O1,-12[16.7 µM],-14
C[C@@H]1CN([C@H](C)CO)C(=O)Cc2cc(NC(=O)Nc3ccc4c(c3)OCO4)ccc2O[C@@H]1CN(C)C(=O)Nc1ccc(C(F)(F)F)cc1,12[16.7 µM],-12
Cc1noc(C)c1S(=O)(=O)N(C)C[C@H]1OCCCC[C@H](C)Oc2ccc(NS(C)(=O)=O)cc2C(=O)N([C@H](C)CO)C[C@@H]1C,3[16.7 µM],0
COc1ccc(NC(=O)N[C@@H]2CC[C@@H](CCNC(=O)CN3CCOCC3)O[C@H]2CO)cc1,4[16.7 µM],3
COCC(=O)Nc1ccc2c(c1)C(=O)N(C)C[C@@H](OC)[C@H](C)CN(C(=O)COC)[C@H](C)CO2,-3[16.7 µM],5
C[C@@H]1CCCCO[C@H](CN(C)C)[C@@H](C)CN([C@H](C)CO)C(=O)c2cc(NC(=O)Nc3cccc4ccccc34)ccc2O1,12[16.7 µM],3
C[C@@H]1CN([C@H](C)CO)C(=O)c2cccc(NS(=O)(=O)c3ccc(F)cc3)c2O[C@@H]1CN(C)Cc1ccc(-c2ccccc2)cc1,36[16.7 µM],14
C[C@H]1CN([C@@H](C)CO)C(=O)c2cc(C#Cc3ccccc3)cnc2O[C@@H]1CN(C)CC1CCOCC1,13[16.7 µM],0
Cc1noc(C)c1S(=O)(=O)N(C)C[C@@H]1Oc2ccc(NS(C)(=O)=O)cc2CC(=O)N([C@@H](C)CO)C[C@@H]1C,23[16.7 µM],7
C[C@@H]1CN([C@H](C)CO)C(=O)c2cc(NC(=O)C3CCCCC3)ccc2O[C@@H](C)CCCCO[C@@H]1CN(C)Cc1ccc2c(c1)OCO2,0[16.7 µM],-3
C[C@H](CO)N1C[C@H](C)[C@H](CN(C)S(=O)(=O)c2cn(C)cn2)Oc2ccc(NC(=O)Cn3cnnn3)cc2CC1=O,-2[16.7 µM],-7
COCC#Cc1ccc2c(c1)O[C@H](CN(C)S(=O)(=O)c1cccc(OC)c1)[C@H](C)CN([C@H](C)CO)S2(=O)=O,7[16.7 µM],26

# Arranged by the number under Yeast UUG start (smallest number first): some entries from above.
structure,HIV Env fusion,Yeast UUG start
CCCNC(=O)C[C@@H]1CC[C@@H]2[C@@H](COc3ccc(NS(=O)(=O)CC)cc3C(=O)N2C)O1,-12[16.7 µM],-14
C[C@@H]1CN([C@H](C)CO)C(=O)c2cc(NC(=O)C3CCCCC3)ccc2O[C@@H](C)CCCCO[C@@H]1CN(C)Cc1ccc2c(c1)OCO2,0[16.7 µM],-3
COc1ccc(NC(=O)N[C@@H]2CC[C@@H](CCNC(=O)CN3CCOCC3)O[C@H]2CO)cc1,4[16.7 µM],3

# 17 entries from above, set out differently.
Molecule	HIV Env fusion	Yeast UUG start
CNC[C@H]1Oc2ccc(NC(=O)Nc3ccc(C(F)(F)F)cc3)cc2C(=O)N([C@@H](C)CO)C[C@H]1C	7[16.7 µM]	-1
C[C@H]1CN([C@@H](C)CO)C(=O)c2cc(-c3cccnc3)cnc2O[C@H]1CN(C)S(C)(=O)=O	1[16.7 µM]	4
CCCN(C)C[C@@H]1OCCCC[C@@H](C)Oc2ccc(NS(=O)(=O)c3cccs3)cc2C(=O)N([C@@H](C)CO)C[C@@H]1C	18[16.7 µM]	-6
CNC[C@H]1Oc2ccc(NC(=O)Nc3ccc(C(F)(F)F)cc3)cc2CC(=O)N([C@H](C)CO)C[C@@H]1C	-2[16.7 µM]	2
C[C@H]1CCCCO[C@@H](CN(C)S(=O)(=O)c2ccc(Cl)cc2)[C@@H](C)CN([C@@H](C)CO)C(=O)c2cc(NS(=O)(=O)c3cn(C)cn3)ccc2O1	4[16.7 µM]	13
O=C(Cc1ccccn1)NCC[C@@H]1CC[C@@H](NC(=O)c2ccccc2F)[C@@H](CO)O1	-9[16.7 µM]	-2
C[C@@H]1CN([C@H](C)CO)C(=O)c2cc(C#CC(C)(C)O)cnc2O[C@H]1CN(C)C(=O)c1ccccc1F	-8[16.7 µM]	13
C[C@H]1CN([C@@H](C)CO)C(=O)c2cc(NC(=O)C3CCCCC3)ccc2O[C@@H]1CN(C)Cc1ccc(Oc2ccccc2)cc1	-1[16.7 µM]	-4
C[C@H](CO)N1C[C@H](C)[C@H](CN(C)Cc2ccc(-c3ccccc3)cc2)Oc2ccc(NC(=O)Nc3ccc(F)cc3)cc2CC1=O	9[16.7 µM]	-12
CCNC(=O)C[C@@H]1CC[C@H](NC(=O)C2CCC2)[C@@H](CO)O1	-8[16.7 µM]	8
Cc1ccc(S(=O)(=O)Nc2ccc3c(c2)C(=O)N([C@@H](C)CO)C[C@@H](C)[C@H](CN(C)C(=O)NC(C)C)O3)cc1	-13[16.7 µM]	-8
C[C@H]1CN([C@@H](C)CO)C(=O)c2cc(C3=CCCC3)cnc2O[C@H]1CN(C)C(=O)CN1CCOCC1	12[16.7 µM]	4
C[C@H]1CN([C@@H](C)CO)C(=O)c2cc(C#CC(C)(C)O)cnc2O[C@H]1CN(C)C(=O)C1CCOCC1	7[16.7 µM]	4
C/C=C/c1ccc2c(c1)O[C@@H](CN(C)C(=O)CC)[C@@H](C)CN([C@H](C)CO)S2(=O)=O	10[16.7 µM]	0
COc1ccc(NC(=O)Nc2ccc3c(c2)CC(=O)N([C@@H](C)CO)C[C@@H](C)[C@@H](CN(C)Cc2ccc4c(c2)OCO4)O3)cc1	2[16.7 µM]	3
C[C@@H]1CCCCO[C@H](CN(C)C(=O)NC2CCCCC2)[C@@H](C)CN([C@H](C)CO)C(=O)c2cc(NS(=O)(=O)c3cccs3)ccc2O1	-1[16.7 µM]	11
C[C@H]1CN([C@@H](C)CO)C(=O)c2cc(NC(=O)Nc3ccc(C(F)(F)F)cc3)ccc2O[C@H]1CN(C)Cc1ccc2c(c1)OCO2	23[16.7 µM]	0

# Later entries.
SMILES,HIV Env fusion,Yeast UUG start
CO[C@H]1CN(C)C(=O)c2cc(NC(=O)Nc3cccc(F)c3)ccc2OC[C@H](C)N(C)C[C@H]1C,-27[16.7 µM],25
O=C(C[C@@H]1C[C@@H]2c3cc(NC(=O)Cc4ccncc4)ccc3O[C@@H]2[C@H](CO)O1)NCc1ccc(-c2ccccc2)cc1,0[16.7 µM],2
CS(=O)(=O)Nc1ccc2c(c1)[C@H]1C[C@@H](CC(=O)N3CCc4ccccc4C3)O[C@@H](CO)[C@H]1O2,1[16.7 µM],6
Cc1noc(C)c1NC(=O)N(C)C[C@H]1OCCCC[C@H](C)Oc2ccc(NS(=O)(=O)c3c(C)noc3C)cc2C(=O)N([C@@H](C)CO)C[C@H]1C,12[16.7 µM],1
Cc1ccc(S(=O)(=O)N(C)C[C@H]2OCCCC[C@@H](C)Oc3ccc(NC(=O)c4ccccc4)cc3C(=O)N([C@@H](C)CO)C[C@H]2C)cc1,-36[16.7 µM],-6
CCCN(C)C[C@@H]1Oc2cc(C#Cc3cccc(F)c3)ccc2S(=O)(=O)N([C@@H](C)CO)C[C@H]1C,12[16.7 µM],2
C/C=C/c1ccc2c(c1)O[C@H](CN(C)C(=O)c1cnccn1)[C@@H](C)CN([C@H](C)CO)S2(=O)=O,-16[16.7 µM],17
CC(C)CC#Cc1cnc2c(c1)C(=O)N([C@@H](C)CO)C[C@H](C)[C@@H](CN(C)C(=O)NC1CCCC1)O2,8[16.7 µM],4
COc1ccc(S(=O)(=O)Nc2ccc3c(c2)C(=O)N([C@@H](C)CO)C[C@H](C)[C@H](CN(C)Cc2ccc(C(F)(F)F)cc2)OCCCC[C@@H](C)O3)cc1,-28[16.7 µM],19
COCC#Cc1cnc2c(c1)C(=O)N([C@@H](C)CO)C[C@@H](C)[C@@H](CN(C)C(=O)c1ccc(F)cc1)O2,3[16.7 µM],5
Cc1noc(C)c1S(=O)(=O)N(C)C[C@H]1OCCCC[C@H](C)Oc2ccc(NC(=O)Nc3cccc4ccccc34)cc2C(=O)N([C@@H](C)CO)C[C@@H]1C,32[16.7 µM],-12
COc1ccc(S(=O)(=O)Nc2ccc3c(c2)C(=O)N([C@@H](C)CO)C[C@H](C)[C@@H](CN(C)S(=O)(=O)c2cccs2)OCCCC[C@@H](C)O3)cc1,-33[16.7 µM],-2
O=C(C[C@@H]1C[C@@H]2c3cc(NC(=O)NC4CCCCC4)ccc3O[C@@H]2[C@H](CO)O1)NCc1cccnc1,-7[16.7 µM],-19
COc1ccccc1S(=O)(=O)N[C@@H]1CC[C@@H](CC(=O)N2CCN(C)CC2)O[C@H]1CO,-22[16.7 µM],13
C[C@H](CO)N1C[C@H](C)[C@H](CN(C)Cc2ccccc2)OCCCC[C@H](C)Oc2ccc(NC(=O)C3CCCCC3)cc2C1=O,-26[16.7 µM],7
COc1ccc(CN(C)C[C@H]2Oc3c(NS(=O)(=O)c4ccc(OC)cc4)cccc3C(=O)N([C@H](C)CO)C[C@H]2C)cc1,23[16.7 µM],7
C[C@@H]1CN([C@H](C)CO)S(=O)(=O)c2ccc(C#CC3(O)CCCC3)cc2O[C@H]1CN(C)C(=O)Cc1ccccc1,-8[16.7 µM],-4
CC(=O)N(C)C[C@@H]1Oc2ncc(-c3cncnc3)cc2C(=O)N([C@H](C)CO)C[C@H]1C,-10[16.7 µM],-15
CC(=O)N(C)C[C@@H]1Oc2ncc(C#CCC3CCCC3)cc2C(=O)N([C@@H](C)CO)C[C@H]1C,4[16.7 µM],-7
COc1ccc(S(=O)(=O)Nc2ccc3c(c2)C(=O)N([C@H](C)CO)C[C@@H](C)[C@@H](CN(C)S(=O)(=O)c2ccc(OC)cc2)O3)cc1,30[16.7 µM],10

# Compound activity from PubChem BioAssay.
